S aureus helic: blocks Staphylococcus aureus DNA helicase; purified S. aureus helicase, fluorescence unwinding assay; about half of the hits fall short of the stated cut; inhibition, %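 (tested at about 80 µM)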; 120,000 tested, 0.05% active; AID 485395;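 active = both duplicates at 50% or more, or one of them with a favoured structure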;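 also: 0% = mean of negative control wells and 100% = mean of positive control wells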
MgrA DNA FP: alters Staphylococcus aureus MgrA binding to DNA; fluorescence polarization; inhibition, %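 (about 10 µg/mL by stock and volumes)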; 84,000 tested, 0.13% active;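 active = above 50% in either of two replicates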;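 also: 0% = protein plus DNA without compound and 100% = DNA alone without protein; higher means less MgrA bound to DNA so lower polarization; one replicate is shown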
Active calls of the source: *; / = not tested or not shown. Some of the compounds tested, so the mix of outcomes need not match the whole.

entry	canonical_smiles	S aureus helic	MgrA DNA FP
1	COc1ccc(C(=O)NCC(=O)N2CCN(c3ccc(F)cc3)CC2)cc1	-13	-1.8
2	CC(C)CN(CC(C)C)Cn1nc(-c2ccc3c(c2)OCO3)oc1=S	-11	/
3	CCOC(=O)c1c(C)n(CCNC(C)=O)c2cc(Br)c(OC)cc12	1	1.4
4	CC1(C)CC(=O)c2sc(NC(=O)C3CCCCC3)nc2C1	15	/
5	COc1ccc(C2CC(=O)N(C)c3ccccc3S2)cc1 (stereo unspecified)	8	-0.6
6	Oc1ccc(Nc2ncnc3ccccc23)cc1	9	0.1
7	Cc1cc(C)c2c(n1)nn1c(C)c(CCC(=O)NCCc3ccccc3)c(C)nc21	11	0.5
8	CC(C)N(C(=O)c1sc2ccccc2c1Cl)C(C)C	19	-1.9
9	O=C(O)CSCc1ccsc1	-8	/
10	Cc1cc(NC(=O)c2ccno2)no1	/	-1.5
11	CCN(CC)c1ccc(C=NCCN2CCOCC2)cc1	1	/
12	COc1ccc(C(=O)Cn2ccnc2C(=O)NCc2ccc(C)cc2)cc1	5	-1.1
13	O=C(Nc1ccc(-c2nc3ncccc3o2)cc1)c1ccc2c3c(cccc13)CC2	/	4.2
14	CCOC(=O)N/N=C1\CCCc2ccccc21	15	/
15	CCOC(=O)c1c(C)n(-c2ccccc2)c2ccc(OC(=O)c3ccc([N+](=O)[O-])cc3[N+](=O)[O-])cc12	/	2.5
16	CN(CC(=O)N1CCCC1)S(=O)(=O)c1ccc2[nH]c3c(c2c1)CCCC3	9	-1.8
17	Cc1ccc(NC(=O)CNC2CCS(=O)(=O)C2)cc1C (stereo unspecified)	8	/
18	Cc1cc(C)c(C#N)c(SCc2cn3c(C)cccc3n2)n1	18	/
19	Cc1cc(C)c2c(N)c(C(N)=O)sc2n1	/	1.2
20	CCOC(=O)c1c(C)n(-c2ccccc2)c2c1cc(OC(=O)Cc1ccccc1)c1ccccc12	/	-3.8
21	CCn1c(CNC(=O)c2ccncc2)cc2ccccc21	7	4.8
22	CN(Cc1ccco1)C(=O)c1ccc2c(c1)CC(c1ccccc1)OC2=O (stereo unspecified)	12	/
23	CC(O)(CCO)C12CC3CC(CC(C3)C1)C2 (stereo unspecified)	3	1.2
24	O=C(COc1ccccc1)Nc1nc2ccccc2[nH]1	1	/
25	CCOC(=O)C1C(c2ccc(OC)c(OC)c2)C(C(=O)OCC)C(O)(C(F)(F)F)NC1(O)C(F)(F)F (stereo unspecified)	/	-3.4
26	FC(F)(F)c1ccccc1NC(=S)N1CCC2(CC1)OCCO2	22	-0.3
27	CCCn1c(N)nc2ccccc21	-29	1.9
28	CC(C)CSc1ncnc2c1sc1nc3c(cc12)COC(C)(C)C3	11	/
29	COC(=O)c1ccccc1S(=O)(=O)N1CCN(S(=O)(=O)c2cccs2)CC1	-5	/
30	CSc1ccncc1C(=O)Nc1cc(Cl)cc(Cl)c1	/	-3.2
31	COc1ccc(S(=O)(=O)Nc2cccc(C(F)(F)F)c2)cc1OC	-18	/
32	O=C(O)[C@@H]1CCCN1C(=O)c1ccccc1F	16	/
33	CN1CCN(c2ncnc3sc(-c4ccccc4)cc23)CC1	/	-4.2
34	CC1CCCN(C(=O)CSc2nnc(COc3ccc(Cl)cc3)n2C)C1 (stereo unspecified)	1	1.6
35	CCOc1nc(C)ccc1-c1noc(-c2cccc(C)c2)n1	15	-4.2
36	Cc1cc2oc(=O)cc(CN(C)C3CCCCC3)c2cc1C(C)C	1	/
37	CCOC(=O)C(Sc1nc2c(c(=O)[nH]1)CCCC2)c1ccccc1 (stereo unspecified)	8	/
38	Cc1onc(-c2ccccc2Cl)c1C(=O)N1CCCN2C(=O)c3ccccc3C21 (stereo unspecified)	/	-1.3
39	CCN1C(=O)N(c2ccc(C)c(Cl)c2)S(=O)(=O)c2ccccc21	-6	/
40	C=CCNc1nc(Cl)nc(Cl)n1	10	-2.5
41	NC(=O)COC(=O)C1c2ccccc2Oc2ccccc21	-9	-1.9
42	CCN(CC)C(=O)Oc1cc(=O)n2c3c(cccc13)CCC2	/	0.6
43	COC(=O)c1ccc2c(c1)N(C)S(=O)(=O)CC2=O	/	-1.0
44	O=C(NC1(C(F)(F)F)N=C2SCCN2C1=O)c1ccccc1 (stereo unspecified)	34	/
45	CC(=O)Nc1cccc(-n2nnc(SCc3ccccc3)n2)c1	/	0.0
46	Cc1ccc(C(=O)COC(=O)/C=C/c2nc3ccccc3o2)c(C)c1	-10	/
47	CCCCNc1ccccc1C(=O)OCc1nc2ccccc2c(=O)n1CC#N	10	/
48	Cc1noc(C)c1COC(=O)/C(C#N)=C/c1cc(C)n(-c2ccc(Cl)c(C(F)(F)F)c2)c1C	-5	/
49	CCSc1sc(CN(C)C)cc1/C=N/O	9	-1.9
50	Cc1nn(CCC(=O)Oc2ccc(Cl)cc2)c(C)c1Cl	-3	-1.8
51	CCc1ccc(CNC(=O)C2CCC(=O)N2C2CCCCC2)cc1 (stereo unspecified)	-1	/
52	CCC(C)c1ccccc1NC(=O)COC(=O)Cc1ccsc1 (stereo unspecified)	-9	-1.4
53	COC(=O)C1=C(C)NC2=C(C(=O)c3ccccc32)C1c1cc2c(cc1Cl)OCO2 (stereo unspecified)	11	0.9
54	CNC(=O)COC(=O)c1cc(C)n(-c2ccc(F)cc2)c1C	6	/
55	Cc1cc(Nc2ccc(F)c(Cl)c2)nc(NC(=O)C(C)(C)C)n1	/	-1.4
56	CSc1n[nH]c(-c2ccc(Cl)cc2)n1	/	-1.6

Next compounds follow:
entry	canonical_smiles	S aureus helic	MgrA DNA FP
57	CCOC(=O)N1CCN(C(=O)CSc2ccc(-c3cccs3)nn2)CC1	1	1.1
58	CNc1nc(SCc2ccc(C#N)cc2)nc2ccccc12	-2	/
59	O=C(NCCc1ccc(Cl)cc1)C(c1ccccc1)c1ccccc1	-18	0.7
60	CC(C)NC(=O)C1c2ccccc2C(=O)N(C)C1c1cccs1 (stereo unspecified)	-24	/
61	Clc1nc(-c2ccccc2)nc2sc3c(c12)CCCC3	-2	2.8
62	Fc1ccc(NC(=S)Nc2ccc3cn[nH]c3c2)cc1	/	-2.2
63	CCc1ccc(CN(C)CC(=O)N(C)c2c(N)n(Cc3ccccc3)c(=O)[nH]c2=O)cc1	12	/
64	COc1ccc(C=NCC2OCCc3ccccc32)cc1OC (stereo unspecified)	5	0.9
65	Cc1c(-n2c(SCC(=O)O)nnc2-c2ccccc2Br)c(=O)n(-c2ccccc2)n1C	-1	/
66	CCOC(=O)c1c(-c2ccccc2)oc2c1cc(OC(=O)c1ccc([N+](=O)[O-])cc1)c1ccccc12	/	4.4
67	NCC(O)CNCCc1ccccc1 (stereo unspecified)	1	4.2
68	NC(=O)Nc1ccc2c(c1)OCO2	-4	/
69	Cc1noc(C)c1S(=O)(=O)N(Cc1ccccc1)C(C)C	/	-1.1
70	COC(=O)c1ccc2c(c1)C(=O)/C(=C/c1ccc(C)o1)O2	-7	4.0
71	CCOC(=O)/C(=C\c1cccc2ccccc12)C1=Nn2c(C)nnc2SC1	-5	/
72	COc1ccc(NC(=O)C2(N3C(=O)CC3c3ccc(OC(C)C)cc3)CCCCC2)cc1 (stereo unspecified)	5	/

An excerpt of these results, with two lines to a compound.
Under each structure: S aureus helic | MgrA DNA FP
(70) COC(=O)c1ccc2c(c1)C(=O)/C(=C/c1ccc(C)o1)O2
    -7 | 4.0
(68) NC(=O)Nc1ccc2c(c1)OCO2
    -4 | /
(67) NCC(O)CNCCc1ccccc1 (stereo unspecified)
    1 | 4.2

(list continues)
entry	canonical_smiles	S aureus helic	MgrA DNA FP
73	O=C(NCCCN1CCCC1=O)c1nnc(-c2ccc3c(c2)OCO3)o1	14	/
74	CCCSc1nnc(-c2ccc(F)cc2)o1	6	-3.2
75	N=Nc1c(O)n(Cc2ccccc2)c2ccccc12	7	/
76	O=C(CSc1nc2ccccc2c(=O)[nH]1)N1CCOCC1	12	1.2
77	Cc1ccc(CNC(=O)C2CSC3(C)CCC(=O)N23)cc1 (stereo unspecified)	7	/
78	O=C(CSc1nc2ccccc2o1)NCC1CCCO1 (stereo unspecified)	8	5.6
79	CCC1=NN(C(=O)COc2ccc(Cl)c(C)c2)C(O)(C(F)(F)F)C1 (stereo unspecified)	1	1.1
80	O=[N+]([O-])c1ccc(Oc2c(Cl)cccc2Cl)cc1	/	-2.8
81	O/N=C1/CCCc2occc21	24	/
82	O=C(CSc1nc2ccccc2o1)c1ccc(Cl)cc1	-9	/
83	Cc1ccc(C(=O)c2ccc(C)cc2)cc1	11	-0.2
84	CCC(C)N1C(=O)C2C(C(=O)Nc3cccc(Cl)c3)C3C=CC2(O3)C1C(=O)NC1CCCCC1 (stereo unspecified)	7	-1.4
85	CN1CCN(C(=O)c2ccc(COc3cc(Cl)ccc3Cl)o2)CC1	22	/
86	N#CCCN(Cc1cccs1)S(=O)(=O)c1ccc2c(c1)CCO2	-12	/
87	Cc1ccc2[nH]c3c(=O)n(CCN4CCCCC4C)cnc3c2c1 (stereo unspecified)	14	-2.2
88	N#CC1=C2CCCCC2C(c2cccc(Br)c2)C(C#N)(C#N)C1=O (stereo unspecified)	-2	0.2
89	COc1ccc(C2CC(C(F)(F)F)n3nc(C(=O)NCc4cccs4)c(Cl)c3N2)cc1OC (stereo unspecified)	/	-0.1
90	O=c1oc(-c2ccccc2Cl)nc2sc3c(c12)CCC3	/	-1.4
91	CCOC(=O)CSc1nnc(-c2ccccc2)c(=O)n1-c1ccccc1	/	-2.7
92	O=S(=O)(CCSCc1csc2ccccc12)c1ccc(Cl)cc1Cl	/	-1.1
93	Cn1c(CNc2nc(-c3ccccc3)cs2)nnc1SCC(=O)OC1CCCCC1	5	-1.1
94	O=c1c2ccccc2nc(SCc2cccc(F)c2)n1C1CC1	7	-1.7
95	COc1cccc(CC(=O)NC2CCN(c3ncc(C(F)(F)F)cc3Cl)CC2)c1	/	0.9
96	CC(Cc1c[nH]c2ccccc12)N1C(=O)CCC1=O (stereo unspecified)	5	/
97	NC(=O)C1CCN(C(=O)c2cccs2)CC1	13	-2.1
98	CCOC(=O)c1sc2cc(OC)ccc2c1Cl	-18	0.1
99	Cn1ccnc1SCc1nc2ccccc2c(=O)[nH]1	12	/
100	CCSc1nc2ccccc2c(=O)n1C	9	2.1
101	Cc1cc(O)cc2c1C(=O)CC(C)(C)O2	/	-0.1
102	NC(=O)COc1ccc(S(=O)(=O)N2CCc3ccccc32)cc1	-3	0.0
103	CC(C)CCN(C(=O)Cn1c(=O)oc2ccccc21)c1c(N)n(Cc2ccccc2)c(=O)[nH]c1=O	7	/
104	c1ccc(Nc2c(-c3ccc(N4CCOCC4)cc3)nc3ccccn23)cc1	12	0.8

Part of the list above in order of heavy-atom count, lowest first:
entry	canonical_smiles	S aureus helic	MgrA DNA FP
98	CCOC(=O)c1sc2cc(OC)ccc2c1Cl	-18	0.1
99	Cn1ccnc1SCc1nc2ccccc2c(=O)[nH]1	12	/
102	NC(=O)COc1ccc(S(=O)(=O)N2CCc3ccccc32)cc1	-3	0.0
103	CC(C)CCN(C(=O)Cn1c(=O)oc2ccccc21)c1c(N)n(Cc2ccccc2)c(=O)[nH]c1=O	7	/

(more compounds)
entry	canonical_smiles	S aureus helic	MgrA DNA FP
105	CC(Oc1ccccc1)C(=O)Nc1ccccc1C(=O)N1CCOCC1 (stereo unspecified)	4	-0.4
106	Oc1[nH]c2ccccc2c1C=Nc1ccc2cn[nH]c2c1	9	5.4
107	CC1(C)C(c2ccccc2)=[N+]([O-])C(C(=O)O)N1O (stereo unspecified)	/	-0.1
108	COc1cccc(C(=O)c2c[nH]c(C(=O)NCc3cccs3)c2)c1	/	-3.7
109	O=c1cc(Nc2ccc(F)cc2)c2ccccc2o1	/	-0.9
110	Cc1nnsc1C(=O)NC(=O)Nc1ccc(F)c(Cl)c1	-7	/
111	Cc1ccccc1S(=O)(=O)Cc1ccc(C(=O)N2CCN(c3ccccc3)CC2)o1	-1	/
112	CN(C(=O)C1(c2cccs2)CCOCC1)c1ccccc1	17	/
113	Cn1c(-c2ccccc2)c(C(=O)Cn2cnc3sccc3c2=O)c2ccccc21	-11	/
114	COc1ccc(N2CCN(C(=O)CNC(=O)Cn3c(C)cc4ccccc4c3=O)CC2)cc1	13	0.1
115	COC(=O)c1c(NC(=O)/C=C/c2ccc(OC)cc2)sc(C)c1C	11	1.1
116	CC1=NNC(=O)C1C(c1cccc(F)c1)C(C#N)C#N (stereo unspecified)	/	-0.3
117	CCN(CCO)C(=O)CCN1C(=O)/C(=C\c2ccco2)SC1=S	9	/
118	CN(C(=O)COc1ccc(-c2nnco2)cc1)C1CCCc2ccccc21 (stereo unspecified)	-9	/
119	O=C(NCCCN1CCOCC1)C1CC(=O)N(c2ccccc2)C1 (stereo unspecified)	-5	-7.8
120	CNc1ccccc1C(=O)NC1CCCCC1	/	-2.5
121	CC(NS(=O)(=O)c1ccc(Br)cc1)C(=O)Nc1nc2ccccc2[nH]1 (stereo unspecified)	6	/
122	CC(/C=C/C(=O)NO)=C\[C@@H](C)C(=O)c1ccc(N(C)C)cc1	/	-0.4
123	O=C(O)CCCC(=O)Nc1ccc(F)cc1F	/	-2.8
124	COC(=O)c1ccc(CSc2nnc(-c3ccc(F)cc3)c3ccccc23)o1	-1	/
125	CCOC(=O)c1ccc(N=Cc2ccccc2O)cc1	7	-1.0
126	CCOC(=O)c1cnc(SC)nc1NC(=O)Nc1cccc(OC)c1	9	/
